Vaccinia Venus: vaccinia inhibition (Venus reporter) | Vaccinia virus Venus reporter expression, fluorescence | Potency, µM (doses to about 36.5 µM), for the others: top-dose activity change, negative = inhibition, usual class: inhibitors | actives 0.46% (n = 330,000) | AID 720580; active means well fitted inhibition curve with a large enough effect; inconclusive means small, poorly fitted or top-dose-only effect; inactive means no such curve, though single readings can be large or run the other way; tested in A549 cells; note: nearly all actives have a fitted effect of over 30% in size; inactives centre near -10
Vaccinia mCherry: inhibitors of vaccinia virus infection (mCherry reporter signal) | Vaccinia virus mCherry reporter infection, fluorescence; about a quarter of the inactives have no number | Potency, µM (series often up to 36.5 µM), for inactives: at the top dose activity change, negative = inhibition, hits mostly inhibitors | actives 0.63% (n = 310,000); active = well fitted inhibition curve with a large enough effect; inconclusive = small, poorly fitted or top-dose-only effect; inactive = no such curve, though single readings can be large or run the other way; tested in A549 cells; note: nearly all actives have a fitted effect of over 35% in size; inactives centre near -10
* hit, by the source's call; i = inactive; ? = inconclusive; / = no result given; & = joins results of further samples; [ ] = remark or other dose. % is set by controls: 0 for no effect and ±100 for the full control effect; potency is the fitted concentration of half-maximal effect.

SMILES	Vaccinia Venus	Vaccinia mCherry
CCCNC(=O)CSc1ccc(S(=O)(=O)N(C)C2CCCCC2)cn1	-1%	i
COC(=O)C(O)(CC(=O)Nc1cc(Cl)ccc1Cl)C(F)(F)F (centres undefined)	-10%	/
CCC(=O)N1c2ccc(S(=O)(=O)N3CCN(c4ccccc4)CC3)cc2CC1C (centres undefined)	-5%	-13%
COc1ccc(NC(=O)C(=O)NCCC2CCCCN2S(=O)(=O)c2cccs2)cc1 (centres undefined)	?	?
CCOc1ccc(NC(=O)/C(C=Nc2ccccc2)=C(\C)O)cc1	-12%	-15%
Cn1c2ccccc2c(=O)c2ccc(F)cc21	9%&5%	38%&0%[activator]
CCOc1ccc(C2Nc3cccc4cccc(c34)N2)cc1OC	-4%	-4%[1.46 µM]
CCC1Oc2ccc(C)cc2N(CC(=O)NCc2cccs2)C1=O (centres undefined)	-2%	i
O=C(CC1C[C@H](C(=O)N2CCOCC2)[C@@]2(CCC3CCCC3)c3[nH]c4ccccc4c3CCN2C1=O)NCc1ccco1 (some centres undefined)	?	-30%
CCOC(=O)c1sc(N)c(C(N)=O)c1C	-9%	-1%
Cc1nn(Cc2ccccc2)c(C)c1NC(=O)c1noc2c1CCc1ccccc1-2	?	?
CC(C)c1cc(CN2CCN(Cc3ccc(F)c(F)c3)C(CCO)C2)[nH]n1 (centres undefined)	-1%	-8%
CN(C)c1nc(-c2ccccc2)[n+](C)s1	-15%	/
O=C(Oc1ccc(Cl)cc1N1C(=O)CCC1=O)c1ccco1	-6%	-11%
CCCCSc1nnc(C)c(=O)[nH]1	-8%	-10%
COc1ccccc1C(NC(=O)C1CCCCC1)c1c(O)ccc2ccccc12 (centres undefined)	-4%	i
COc1ccc(C(=O)Cn2c3ccccc3n3nc(CCC(=O)O)c(=O)nc23)cc1OC	-7%	-15%
CCCCCCCCCCCCC[N+](C)(C)Cc1ccccc1	11µM*	11µM*
COc1ccc(S(=O)(=O)N2CCN(C(=O)c3cccc(Cl)c3)CC2)cc1	-11%	-22%
CN(Cc1ccccc1)C1CCNCC1	-17%	-21%
Nc1cc(=O)[nH]c(SCCSc2cc(Cl)ccc2Cl)n1	-6%	i
O=C(Nc1cccc(S(=O)(=O)N2CCOCC2)c1)c1cccc(S(=O)(=O)N2CCCCC2)c1	-17%	-4%
Cc1cc(C)cc(C(=O)NCC(=O)NCCc2c[nH]c3ccccc23)c1	-29%	-27%
Cc1cccc(C(=O)Nc2cc(S(=O)(=O)N3CCOCC3)ccc2N2CCCC2)c1	-10%	-15%
Nc1nonc1-n1nnc(C(=O)N/N=C/c2cccc(F)c2)c1CN1CCCCCC1	4%	14%
Cc1ccc2nc(N(Cc3cccnc3)C(=O)c3ccco3)sc2c1	-20%	-6%
CCOc1c(OC)cccc1C1CC(=O)Nc2cc(OC)c(OC)cc21 (centres undefined)	-18%	i
CCc1ccc2c(c1)cc(CN(C(=S)Nc1ccccc1Cl)C1CC1)c1nnnn12	-14%	i
CN(C)c1ccc(P(=O)(OCc2ccccc2)C(O)c2ccc(Br)cc2)cc1 (centres undefined)	23%	-2%
C/C(=N\NC(=O)CCn1nc(C)cc1C)C(C)(C)C	-2%	-17%
CCOC(=O)C[C@H]1c2ccc(C(F)(F)F)cc2S(=O)(=O)N1C1CCCC1	-6%&-13%	-8%&-20%
COc1cc(C(=O)O)cc(NC(=O)c2ccco2)c1OC	2%	-7%
COc1ccc2c(c1)CC(C(=O)NCc1ccc(F)cc1)CO2 (centres undefined)	-9%	-3%
Cc1nnc(NC(=O)CSc2nnc(-c3ccoc3C)n2CC(C)C)s1	2%	-4%
COC(=O)c1ccccc1NC(=O)c1nc(-c2ccc(Cl)cc2)n2c1CCCCC2	7%	-1%
Cc1cc(C)n(-c2ccc(N3CCOCC3)nn2)n1	-15%	/
COc1ccc(N=Cc2ccc[nH]2)cc1	-19%	-12%
Cc1cc(C)nc(SCC(=O)NCc2ccco2)n1	-9%	-11%
CCOC(=O)N/N=C/C=C/c1ccccc1[N+](=O)[O-]	-12%	-2%
COc1ccc2c(c1)c(CC(=O)N1CCOCC1)c(C)n2C(=O)c1ccc(Cl)cc1	-5%[3.33 µM]	-15%[3.33 µM]
CC(C)(C)CC(=O)NCc1cccs1	-2%	i
CCN(CC)C(=O)[C@H]1CC(CC(=O)NCCN2CCOCC2)C(=O)N2CCc3c([nH]c4ccc(OC)cc34)[C@]12C (some centres undefined)	-12%	i
Cc1ccc(N(CC(=O)Nc2ccccc2-c2ccccc2)S(=O)(=O)c2ccccc2)c(C)c1	?	-11%
COc1ccc(CNC(=O)COC(=O)[C@@H]2CCCN2C(=O)c2cccs2)cc1	-2%	-2%
Cc1ccc2c(c1)NC(c1cccs1)C1=C(CC(C)(C)CC1=O)N2 (centres undefined)	-8%	-1%
CCS(=O)(=O)N1CCN(c2ccc(C(=O)NC34CC5CC(CC(C5)C3)C4)cc2[N+](=O)[O-])CC1	-2%	-13%
COc1ccc(OCC(=O)N2CCN(Cc3cc(=O)n4nc(-c5ccc(OC)cc5)sc4n3)CC2)cc1	-30%	-10%
Cc1ccc(N2C(=O)c3oc4cc(C)c(C)cc4c(=O)c3C2c2cccc(O)c2)nc1 (centres undefined)	-6%	-6%
COc1cccc2c1CCc1c-2nc2ccccc2c1C(=O)O	5%	?
Cc1c(C(=O)O)cccc1-n1c(C)cc(/C=C2\C(=O)NC(=O)N(c3ccc4c(c3)OCO4)C2=O)c1C	5%	11%

15 entries already listed, sorted by SMILES length, largest number first:
SMILES	Vaccinia Venus	Vaccinia mCherry
COc1ccc(OCC(=O)N2CCN(Cc3cc(=O)n4nc(-c5ccc(OC)cc5)sc4n3)CC2)cc1	-30%	-10%
CCOC(=O)C[C@H]1c2ccc(C(F)(F)F)cc2S(=O)(=O)N1C1CCCC1	-6%&-13%	-8%&-20%
COc1ccc(NC(=O)C(=O)NCCC2CCCCN2S(=O)(=O)c2cccs2)cc1 (centres undefined)	?	?
Cc1nn(Cc2ccccc2)c(C)c1NC(=O)c1noc2c1CCc1ccccc1-2	?	?
CCCNC(=O)CSc1ccc(S(=O)(=O)N(C)C2CCCCC2)cn1	-1%	i
CCOc1c(OC)cccc1C1CC(=O)Nc2cc(OC)c(OC)cc21 (centres undefined)	-18%	i
CCC1Oc2ccc(C)cc2N(CC(=O)NCc2cccs2)C1=O (centres undefined)	-2%	i
Nc1cc(=O)[nH]c(SCCSc2cc(Cl)ccc2Cl)n1	-6%	i
COc1cc(C(=O)O)cc(NC(=O)c2ccco2)c1OC	2%	-7%
Cc1cc(C)n(-c2ccc(N3CCOCC3)nn2)n1	-15%	/
CN(C)c1nc(-c2ccccc2)[n+](C)s1	-15%	/
Cn1c2ccccc2c(=O)c2ccc(F)cc21	9%&5%	38%&0%[activator]
COc1ccc(N=Cc2ccc[nH]2)cc1	-19%	-12%
CCCCSc1nnc(C)c(=O)[nH]1	-8%	-10%
CN(Cc1ccccc1)C1CCNCC1	-17%	-21%

Continued:
SMILES	Vaccinia Venus	Vaccinia mCherry
O=C(CSc1nnc(Nc2ccccc2)s1)NCCN1C(=O)CSC1=O	-6%	-1%
O=C(c1ccco1)N(Cc1cc2cc3c(cc2nc1N1CCOCC1)CCC3)CC1CCCO1 (centres undefined)	35%[activator]	29%
Cn1cccc1CC(=O)N/N=C/c1ccc(Cl)cc1	-11%[7.34 µM]	-19%[7.34 µM]
C#CCOCCOCCOCCNc1nc(N2CCN(C(=O)[C@H]([C@@H](C)CC)n3cc([C@@H](N)CC(C)C)nn3)CC2)nc(N2CCN(C(=O)[C@H](Cc3ccc(O)cc3)n3cc([C@@H](N)CC(C)C)nn3)CC2)n1	-3%	-21%
O=C(O)Cc1sc(=O)[nH]c1O	4%	-22%
CC(=O)c1cccc(NC(=O)N2C3CCCC2CC(NC(=O)C2CC2)C3)c1 (centres undefined)	-5%	9%
CC1(C(=O)OCC(=O)Nc2nc(-c3ccc(F)c(F)c3)cs2)CC1(Cl)Cl (centres undefined)	-27%	-15%
O=C(Nc1cccc(C(=O)N2CCCCCC2)c1)c1ccco1	-5%	/
Cc1ccc(C2C=C(c3ccccc3)Nc3nc(NS(=O)(=O)c4ccc(C)cc4)nn32)cc1 (centres undefined)	-6%	-7%
CC(C)NC(=O)NC(=O)COC(=O)c1ccccc1F	-9%	-14%
O=C(COC(=O)c1cc(Br)ccc1O)NC12CC3CC(CC(C3)C1)C2	-8%	-2%
O=C(Nc1ccc(Cl)c(Cl)c1)N1N=CCC1c1ccccc1 (centres undefined)	-17%	-21%
Cn1cc(S(=O)(=O)NC2CCCCC2)c(=O)n(C)c1=O	-6%	i
Fc1ccccc1CSc1nc2ccccc2[nH]1	-21%	-15%
CC(C)(C)S(=O)(=O)N1C[C@H]2CC/C=C\C/C(c3ccccc3)=C\2[C@@H]1CCO	0%	-7%
CCC(=O)Nc1ccc(SC#N)cc1C	-15%	i
CCc1nn2c(=O)cc(COC(=O)C3CCCCC3)nc2s1	-2%	1%
COc1cccc(C=NN2CCCCCC2)c1OC	3%	?
COc1ccc(Cc2nnc(SCC(=O)c3ccc(OC)cc3)o2)cc1	?	-30%
COc1ccc(C(O)c2cnc(C)n2Cc2ccccc2)cc1 (centres undefined)	-14%	i
CCCCN(C)C(=O)C1CCC(CNS(=O)(=O)c2ccc3c(c2)CC(C)N3C(C)=O)CC1 (centres undefined)	-9%&-21%	-15%
COc1ccc(O)c(C2=Nc3ccccc3N=C(c3cccs3)C2)c1	-4%	-11%
C/C(Cn1cnc([N+](=O)[O-])n1)=N\NC(=O)c1ccc(O)cc1O	-3%	-1%
CN1C2CCC1CC(OC(=O)c1ccc(Cl)cc1)(C(=O)O)C2 (centres undefined)	-7%	-12%
CC(C)CCCC(C)CCOC(=O)CN1CCCC1 (centres undefined)	-9%[7.34 µM]	-13%[7.34 µM]
Cc1cccc(NC(=O)C(=O)NCCc2c[nH]c3ccccc23)c1C	-7%	?
Cc1cc(=O)[nH]c(SCC(=O)N2CCC(Cc3ccccc3)CC2)n1	-7%	-9%
CS(=O)(=O)c1ccc(NC(=O)C2CC(=O)N(c3ccc4c(c3)OCCO4)C2)cc1 (centres undefined)	-3%	-8%
O=C(NCC(c1cccnc1)N1CCc2ccccc21)c1cccc(F)c1 (centres undefined)	-15%	-14%
COc1cccc(N(C(=O)Cc2cccs2)C(C(=O)NC2CCCC2)c2ccncc2)c1 (centres undefined)	0%	-1%
Cc1ccc(OCCCC(=O)N2CCOCC2)cc1	-4%	-15%
C=CCN(C(=O)CCC(=O)O)C1CC(=O)N(c2ccc(OC)cc2)C1=O (centres undefined)	-10%	/
CCOC(=O)c1cccc(NC(=O)CSc2ncc3c(n2)-c2ccc(Cl)cc2N(Cc2ccccc2)S3(=O)=O)c1	-13%	-3%
O=C(CSCc1ccc([N+](=O)[O-])cc1)Nc1ccc(S(=O)(=O)N2CCCCCC2)cc1	-15%	-15%
COCCN1C(=O)N[C@@H](c2cccc(F)c2)C(C(=O)OC)=C1C	-5%	i
CCOC(=O)N1CCN(Cc2nc(-c3cccc(Cl)c3)no2)CC1	-2%	i
O=C(COC(=O)c1ccncc1)c1ccc(Cl)c(Cl)c1	-6%	i
O=C(Nc1nc(-c2cccnc2)cs1)c1ccccc1[N+](=O)[O-]	7%	1%
CCC(C(=O)Nc1cccc(Cl)c1C)n1nc(C)c2sc3ccccc3c2c1=O (centres undefined)	-3%	-5%
COc1ccc(CNC(=O)c2cc3c(=O)n(Cc4ccco4)ccc3nc2C)c(OC)c1	-3%	-3%
COc1ccccc1-c1cc(C(=O)N2CCN(S(=O)(=O)c3ccc(C)cc3)CC2)[nH]n1	-19%	-26%
CCN(Cc1ccncc1)C(=O)c1cccc(S(=O)(=O)N2CCOCC2)c1	-7%	/
COc1ccc(N2CCC(CNS(=O)(=O)c3cccc(C(F)(F)F)c3)C2)cc1 (centres undefined)	-19%	/
C=CCN1C(=O)CN=C1Nc1cccc(C)c1	-4%	-19%
Cc1ccc(C(=O)Nc2sc3c(c2C(=O)NCc2ccco2)CCC(C(C)(C)C)C3)cc1 (centres undefined)	-6%	i
COc1nc(Nc2ccc(OC)c(Cl)c2)nc(OC)n1	?	/
CCCCCOc1ccc(NC(=O)Cn2c(-c3cncs3)nc3ccccc32)cc1	?	-30%
Cc1cc(Nc2ccc(Cl)cc2)n2nnnc2n1	-6%	-10%
O=C1CCCN1C(=O)CSc1nnnn1-c1cccc(F)c1	-8%	i
CC(=O)O[C@](C)(CCC=C(C)C)C1CC=C(C)CC1 (some centres undefined)	-13%	-1%

The list continues:
SMILES	Vaccinia Venus	Vaccinia mCherry
C#CCN1C=C(C(=O)OCC)C(C)N(Cc2ccccc2I)S1(=O)=O (centres undefined)	?	?
CCCCCCn1c(=O)c(-c2ccccc2)c(O)c2ccccc21	-6%	/
Cc1ccccc1C(=O)NCC(=O)OCC(=O)NNC(=O)c1ccccc1F	0%	-20%
CC(OC(=O)c1ccc(Cl)c(S(=O)(=O)N2CCc3ccccc32)c1)C(=O)Nc1ncc(Cl)cc1Cl (centres undefined)	-4%	-4%
COc1cc(NC(=O)c2ccc(C)cc2C)ccc1NC(=O)c1cccs1	-15%	-6%

Screening results (PubChem)
